From PubChem
Calb biofilm kill: mixture kills Candida albicans biofilm cells; C. albicans biofilm persisters + clotrimazole, fluorescence viability; primary screen in compound mixtures of four per well; inhibition, % at 7.6 µM; 120,000 compounds, 0.02% hits; AID 1242;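 active means inhibition above 30.3% in the primary screen of four-compound pools, then above 30% when the compound was retested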;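 further: compounds exposed to preformed 24 h biofilms for 48 h; the number belongs to the whole pool; some results filed as inactive read as strong as hits; inactives centre near 12; 0% = biofilm with clotrimazole alone and 100% = kill control; retested singly at about 60 µM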
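Probe or stimulus – Clotrimazole 50 µg/mL co-treatment · System – C. albicans biofilms · Schedule – 24 h biofilm formation, then 48 h compound exposure, 37 °C · Evaluation – percent inhibition of biofilm viability · Technique – 2-h Alamar Blue fluorescence, 535/590 nm excitation/emission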
Active calls of the source: *. These rows are one share of the data; the hit share may differ from the screen's.

SMILES | Calb biofilm kill
Cc1ccc(/C=N/NC(=O)c2ccncc2)o1 | 16
N#Cc1cc([N+](=O)[O-])ccc1NC(=O)COC(=O)CC1CCCC1 | 18
CCCNC(=O)NC(=O)CSc1ccc(C)cc1C | 18
COCC1CCN(C(=O)CCc2nnc(CCCCc3ccccc3)o2)CC1 | 11
CN(C)C(=O)c1cccn(Cc2ccc(C(F)(F)F)cc2)c1=O | 23
CC1CCN(c2ccc(S(=O)(=O)NC3=NCCCCC3)cc2[N+](=O)[O-])CC1 | 9
C/C=N/NC(=O)CCCC(=O)N/N=C/C | -1
O=C(COc1cccc2cccnc12)NCc1cccs1 | 14
O=C(N/N=C/c1ccccc1O)C1SCCCS1 | 4
Cc1c(N=Nc2c(-c3ccc([N+](=O)[O-])cc3)[nH]n(C(N)=S)c2=O)cccc1[N+](=O)[O-] | 8
Cc1ccccc1Cn1cc(NC(=O)c2cc(C3CC3)on2)cn1 | 29
O=S(=O)(c1ccc(Br)s1)N1CCN(c2ccnc3cc(Cl)ccc23)CC1 | 13
CCC[N+](CC#Cc1ccccc1)(CCC)CC(=O)c1ccc(Cl)cc1 | 11
CCNC(=S)N(CCc1c(C)[nH]c2ccc(C)cc12)Cc1ccco1 | 18
CC(C)COC(=O)c1ccc(N2C(=O)c3ccccc3C2=O)cc1 | 18
O=C(COc1ccccc1)Nc1ccc(Cl)c(-c2nc3ncccc3o2)c1 | 1
Cc1ccc(S(=O)(=O)N2CCC(=O)N(C(COCc3cccc(C)c3)Cc3ccccc3)CC2)cc1 (stereo not given) | 1
Cc1cccc(Nc2ncnc(N)n2)c1 | 2
CN(C)C(=O)N1CCN(C(=O)N2CCOCC2)CC1 | 11
O=C(CCCN1C(=O)/C(=C/c2ccccc2Cl)SC1=S)NNC(=O)c1ccccc1 | 26
C=C1CCN([C@@H](C)C(=O)OCc2ccc(C)cc2)S(=O)(=O)c2ccccc21 | 18
COC(=O)C1C/C(=N\NS(=O)(=O)c2ccc(C)cc2)c2ccsc2C1 (stereo not given) | 9
CCOc1ccc(C(=O)Nc2ccc(N3CCN(S(C)(=O)=O)CC3)cc2)cc1[N+](=O)[O-] | 4
CCOCC(=O)Nc1cccc(SC)c1 | 6
Cc1ccc(C2CC(=O)C(C=NCCN3CCN(C(=S)Nc4ccccc4)CC3)=C(O)C2)cc1 (stereo not given) | 16

(listing goes on)
SMILES | Calb biofilm kill
Cc1ccc(C)c(NC(=O)CN(C)C(=O)c2nn(C)c(=O)c3ccccc23)c1 | 16
COc1cc(CN2CCCC(CCC(=O)NCc3ccc(C)o3)C2)cc2c1OCO2 (stereo not given) | 18
COC(=O)C1CCN(c2cc(Cl)nc(N)n2)CC1 | 5
CCCC(=O)C1=C(O)C(C(=O)OC)C(C)(C)CC1=NCCc1ccc(OC)c(OC)c1 (stereo not given) | 0
O=S(=O)(c1cccc(-c2nnc(-c3cccnc3)o2)c1)N1CCCCC1 | 6
COc1ccc(C=O)cc1COc1ccccc1F | 4
O=Cc1c[nH]c2ccc(S(=O)(=O)N3CCOCC3)cc12 | 14
COc1ccc(-c2nnc(NC(=O)CSc3ccc(Cl)cc3)s2)cc1OC | 16
COC(=O)C(C)Sc1ccc2nnc(CCNS(=O)(=O)c3ccc(C)cc3)n2n1 (stereo not given) | 16
O=C(CNC(=O)Cc1ccccc1)NCC(=O)OCC(=O)c1ccc(F)cc1 | 11
COc1cc(CNc2ccc(CNc3ncn[nH]3)cc2)ccc1OCc1ccccc1 | 21
CCCCN(C(=O)CSc1nnc(-c2ccc(OC)cc2)n1C(C)C)c1c(N)n(Cc2ccccc2)c(=O)[nH]c1=O | 6
CC1(C)c2ccccc2N2CC(=O)N[C@@]21/C=C/C=C/c1ccccc1 | 11
CC(=O)N1CCN(CC(=O)Nc2ccc(SC(F)F)cc2)CC1 | 15
Cc1ccc(C(=O)OCC(=O)NCc2ccco2)s1 | 5
COC(=O)COc1ccccc1/C=C1/NC(=O)NC1=O | 13
O=C(/C=C/c1ccccc1)OCc1cncs1 | 17
CC(C)CC1NC(=O)N(CC(=O)NC2CCCc3ccccc32)C1=O (stereo not given) | 18
CCN(CC)S(=O)(=O)c1ccc(N(C)Cc2cccc(OC)c2OC)nc1 | 5
O=C(COC(=O)c1c2c(nc3ccccc13)/C(=C/c1cccc([N+](=O)[O-])c1)CCC2)NC1CCS(=O)(=O)C1 (stereo not given) | 21
NC(=O)c1ccc(-n2c(CCC(=O)O)ccc2-c2cccs2)cc1 | 14
CCOC(=O)c1sc(Nc2ccc(Br)cc2)nc1C | 15
CCCCC1C2=C(CCCC2=O)OC2=C1C(=O)CCC2 | 1
CC(NC(=O)COC(=O)c1cc(Cl)nc(Cl)c1)c1ccccc1 (stereo not given) | 14
COc1ccc([C@H]2[C@@H]3C=CCC[C@@]3(C)C(=O)N2Cc2ccccc2)cc1Cl | 17

Further entries follow.
SMILES | Calb biofilm kill
CCOc1ccc(CNCc2cccnc2)cc1 | -6
Cc1ccc(-c2ccc(C(=O)O)c(C)n2)cc1 | 18
COc1cccc(OCCCN2CCCCCC2)c1 | 6
COc1ccc(N(CC(=O)NCc2ccc(Cl)cc2)S(=O)(=O)c2ccccc2[N+](=O)[O-])c(OC)c1 | 21
CCOC(=O)C1=C(N)Oc2c(oc(CO)cc2=O)C1c1ccc(F)c(F)c1 (stereo not given) | 0
CC(Sc1nc2ccccc2n1C)C(=O)NC(c1ccccc1)c1ccccc1 (stereo not given) | 8
CCc1cc2c(SCC(=O)Nc3ncc(Cl)c(C)c3Cl)ncnc2s1 | 20
C=CCN(Cc1nc(-c2cc(OC)c3c(c2)OCO3)oc1C)C1CCS(=O)(=O)C1 (stereo not given) | -4
Cc1nnsc1C(=O)N1CCN(c2cc(C(F)(F)F)ccn2)CC1 | 12
CNC(=S)N1CCc2cc(OC)c(OC)cc2C1COc1ccc(F)cc1 (stereo not given) | 15
CCCCCc1nc2c(c(=O)c3ccccc3n2C)c(=O)n1Cc1ccc(OC)cc1 | 16
Cc1cccc(N2C(=O)/C(=C/c3ccccn3)SC2=S)c1 | 1
CCOc1ccc(C(=O)NCC2OCCc3ccccc32)cc1 (stereo not given) | 16
COc1cc(C(=O)Nc2ccc([N+](=O)[O-])cn2)cc(OC)c1OC | 8
CC(=O)c1cnn(-c2ccccc2)c1C | 7
COCCNC(=O)C/C(C)=N/NC(=O)C(=O)NC1CCCCC1 | 12
CCCCOc1ccc(Nc2cc(Cl)ccc2C(=O)O)cn1 | 15
Cc1ccc(N=Nc2c(C)[nH]n(-c3ccccc3)c2=O)c(C)c1 | 10
O=c1c2cc3c(cc2[nH]c(=S)n1C1CCN(Cc2ccccc2)CC1)OCO3 | 14
CCC1(C(=O)c2ccccc2)C(c2cccc([N+](=O)[O-])c2)C1(C(=O)OC)C(=O)OC (stereo not given) | 9
CC(C)[C@@H](N)C(=O)N/N=C/c1ccc2nccnc2c1 | 23
Cc1cc(C)n(-c2nc3c(c(=O)n(C)c(=O)n3C)n2CCO)n1 | 12
CCOC(=O)CNC(=O)c1cn(CC(C)C)c(=O)c2cc(OC)c(OC)cc12 | 17
COc1cc(C(=O)N2CCN(c3ccccc3OC)CC2)c([N+](=O)[O-])cc1OC | 6
C(=N\c1nccs1)/c1cccnc1 | 10

An excerpt from above in order of SMILES length, falling:
SMILES | Calb biofilm kill
CCOC(=O)CNC(=O)c1cn(CC(C)C)c(=O)c2cc(OC)c(OC)cc12 | 17
Cc1cccc(N2C(=O)/C(=C/c3ccccn3)SC2=S)c1 | 1
Cc1ccc(-c2ccc(C(=O)O)c(C)n2)cc1 | 18
C(=N\c1nccs1)/c1cccnc1 | 10

Following part:
SMILES | Calb biofilm kill
COc1ccc(-n2c(CN3CCN(c4ccccn4)CC3)nc3ccc([N+](=O)[O-])cc3c2=O)c(OC)c1 | 11
N#CCC(=O)Nc1ccc(C(=O)Nc2cccnc2)cc1 | 23
COc1ccc(NC(=S)N2CCN(c3ncccn3)CC2)cc1 | 14
Cc1nn(C)c(C)c1CN(C)C(=O)C1c2ccccc2Oc2ccccc21 | 7
CN(Cc1cn(Cc2ccccc2)nc1-c1ccc2c(c1)OCO2)Cc1nccn1C | 15
Cc1nn2c(=O)c(NC(=O)c3ccc(Cl)cc3)cnc2s1 | 7
CC1=NN(c2ccccc2)C(=O)/C1=C\C=C1/N(C)c2ccccc2C1(C)C | 9
Cc1cccc(Cn2nc(C)cc2NC(=O)CCCn2ccc([N+](=O)[O-])n2)c1 | 15
CCCC(=O)Nc1nnc(SCC)s1 | 5
Cn1ncc(C#N)c1NC(=O)C1CC(c2ccccc2Cl)=NO1 (stereo not given) | 11
COc1ccc(CCNC(=O)c2cnc3ccccn3c2=O)cc1 | 7
COc1ccc(-c2ncnc(C(F)(F)F)c2-c2csc(C)n2)c(O)c1 | 16
COc1cccc(CNC(=O)CN2C(=O)CSc3ccc(S(=O)(=O)N4CCCC4)cc32)c1 | 17
Nc1ccc(Br)cc1Br | 19
CCCOc1ccc(-c2csc(N)n2)cc1[N+](=O)[O-] | 14
COc1ccc(N2C(=O)C(CC(N)=O)N(NC(=O)CCc3ccccc3)C2=O)cc1 (stereo not given) | 7
COc1ccc(NC(=O)CN2C(=O)C(C)SC(C)C2=O)c(OC)c1 (stereo not given) | 11
CN1CCN(c2ccc(CNS(=O)(=O)c3ccccc3)cc2)CC1 | 24
Cc1cccc(OCCSc2nc(N)cc(N)n2)c1 | 16
CC(C)(C)C(=O)NC(=S)NCc1ccccc1 | 13
COc1ccc(C(=O)CSc2n[nH]c(=O)[nH]c2=O)cc1 | 15
COCCNC(=O)c1cnn2c(C(F)F)cc(-c3ccc(C)cc3)nc12 | 17
O=C(CSc1ccccn1)Nc1ccc2ccccc2c1 | 2
CN(C)c1ccc(-c2cc([C@H]3[C@@H]4C=CCC[C@@]4(C)C(=O)N3Cc3ccccc3)ccc2F)cc1 | 9
O=S1(=O)CC2N=C(N(Cc3c(F)cccc3Cl)c3ccccc3F)SC2C1 (stereo not given) | -11

Single values from the entries so far:
Under Calb biofilm kill, `COc1cccc(CNC(=O)CN2C(=O)CSc3ccc(S(=O)(=O)N4CCCC4)cc32)c1` is listed with 17
Under Calb biofilm kill, `COc1ccc(CCNC(=O)c2cnc3ccccn3c2=O)cc1` is listed with 7
Under Calb biofilm kill, `CCCOc1ccc(-c2csc(N)n2)cc1[N+](=O)[O-]` is listed with 14

(listing goes on)
SMILES | Calb biofilm kill
O=C(c1cnc(N2CCN(c3ccccn3)CC2)c2ccccc12)N1CCN(c2cccc(Cl)c2)CC1 | 14
CCN(CC)CCCNC(=O)C1c2cc(OC)c(OC)cc2C(=O)N(C)C1c1cccnc1 (stereo not given) | 14
Cc1ccc(Sc2c(C)nn(C(=O)C3CC3)c2C)cc1 | 17
CC(C)NS(=O)(=O)c1ccc(CCC(=O)N2CCCC2)cc1 | 4
CCOCCCNS(=O)(=O)c1ccc(NC(=O)c2ccc(OC)c([N+](=O)[O-])c2)cc1 | 7
CCN(CC)S(=O)(=O)c1ccc(C(=O)Nc2ccc(Cc3ccncc3)cc2)cc1 | 4
COc1cc(/C=C/c2[nH]c(=O)[nH]c(=O)c2[N+](=O)[O-])ccc1OCCC(C)C | 9
O=C(C[n+]1ccc2ccccc2c1)c1ccccc1 | 19
C#CC[N+](C)(C)CCCCCCCCCC | 11
CCOC(=S)SCC(=O)Nc1nccs1 | -1

Some of the entries above in a different format:
molecule: O=C(C[n+]1ccc2ccccc2c1)c1ccccc1
- Calb biofilm kill = 19

molecule: C#CC[N+](C)(C)CCCCCCCCCC
- Calb biofilm kill = 11

Looked up by structure from the list above, three records:
SMILES | Calb biofilm kill
COc1cc(/C=C/c2[nH]c(=O)[nH]c(=O)c2[N+](=O)[O-])ccc1OCCC(C)C | 9
CCOC(=S)SCC(=O)Nc1nccs1 | -1
Cc1ccc(Sc2c(C)nn(C(=O)C3CC3)c2C)cc1 | 17
